gsp agonist: qHTS for Agonist of gsp, the Etiologic Mutation Responsible for Fibrous Dysplasia/McCune-Albright Syndrome: qHTS. gsp mutant cells, cAMP HTRF, 30 min; control for the full effect not named in the record. hit rate 0.13% among 340,000. AID 624287, 2012. Potency, µM (doses to about 76.9 µM), inactives show at the top dose activation (cAMP increase), actives largely listed as activators; active = well fitted activation curve with a large enough effect; inconclusive = small, poorly fitted or top-dose-only effect, or another doubt; inactive = no such curve, though single readings can be large or run the other way; cell line not stated here;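 note: phosphodiesterase inhibitor Ro 20-1724 added with compounds to block cAMP breakdown; potency is the fitted concentration of half-maximal effect; nearly all actives have a fitted effect of over 60% in size; about a fifth of the inactives were tested at one dose only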
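Cells stably selected in G418 were plated at 2000/well, grown 16-24 hr, then given compounds in DMSO with the PDE inhibitor […] (300 uM solution added) for 30 min at 37C; cAMP was read by HTRF.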
gsp antagonist: qHTS for Antagonists of gsp, the Etiologic Mutation Responsible for Fibrous Dysplasia/McCune-Albright Syndrome: qHTS; gsp-mutant cells, cAMP HTRF, 30 min; control for the full effect not named in the record; Potency, µM (series often up to 76.9 µM), for inactives: top-dose activity change, negative = inhibition, hits mostly inhibitors; hit rate 0.4% among 340,000; active = falling curve of any shape with a large fitted effect; inconclusive = falling curve, mostly with a smaller effect; inactive = flat or rising curve; cell line not stated here;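 note: intracellular cAMP measured with PDE inhibitor Ro 20-1724 present during compound exposure; potency is the fitted concentration of half-maximal effect; % is set by controls: 0 for no effect and ±100 for the full control effect; nearly all actives have a fitted effect of over 65% in size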
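Cells, 2000/well, grown 16–24 h in DMEM 10% FBS with 0.5 mg/ml G418, then compounds plus […] (300 uM addition stock), 30 min at 37C. cAMP read by HTRF (cAMP-d2 and anti-cAMP antibody-K in lysis buffer) after 30 min RT.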
Menin MLL FP FL: qHTS Assay for Inhibitors Targeting the Menin-MLL Interaction in MLL Related Leukemias: Competition With Fluorescein Labeled MLL-derived Peptide. FP activity change, % at 61.4 µM. 290,000 tested, under 10 active. Fluorescence polarization, fluorescein-MLL peptide displacement from menin; inconclusive = falling polarisation curve, or a change in total fluorescence; inactive = total fluorescence flat and polarisation flat or rising; no compound was filed as active; the % refers to the polarisation; negative = inhibition;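 note: % of control where 0% means no effect; inhibitors lower the polarisation; unlabelled MLL peptide was the positive control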
ClpP mod: qHTS Assay for Activators of ClpP | ATP-dependent Clp protease proteolytic subunit (Bacillus subtilis (strain 168)), P80244 | purified B. subtilis ClpP, FRET peptide cleavage, 20 min | Potency, µM (doses to about 57.5 µM), for the others: at the highest dose activity change, negative = active | hit rate 1.9% among 340,000; active = well fitted falling curve with a large enough effect; inconclusive = small, poorly fitted or top-dose-only effect; inactive = no such curve, though single readings can be large or run the other way; note: potency is the fitted concentration of half-maximal effect; the source files actives as falling curves though it sought activators and does not explain the sign; nearly all actives have a fitted effect of over 65% in size; many hits overshoot -100%
Target sequence (P80244 whole entry, looked up): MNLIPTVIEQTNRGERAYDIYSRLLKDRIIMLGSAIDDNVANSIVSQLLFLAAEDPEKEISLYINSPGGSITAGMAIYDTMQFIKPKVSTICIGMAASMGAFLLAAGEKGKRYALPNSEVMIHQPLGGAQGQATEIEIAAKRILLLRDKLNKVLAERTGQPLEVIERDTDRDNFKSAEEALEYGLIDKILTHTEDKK
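ClpP 10 microg/mL final, pH 8 Tris/KCl buffer with BSA, glycerol, Tween-20; compound pinned in; FRET-FV substrate; RT 20 min; Ex320/Em430; ΔFRET vs ADEP 5.8 microM, DMSO, no enzyme.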
Sfp inh: qHTS Assay for Inhibitors of Bacillus subtilis Sfp phosphopantetheinyl transferase (PPTase). 4'-phosphopantetheinyl transferase ffp (Bacillus subtilis), Q9F4F7. Biochemical Sfp PPTase activity, qHTS. Potency, µM, without a hit: max response, negative = inhibition, actives largely listed as inhibitors. hit rate 3.5% among 310,000; active = well fitted inhibition curve with a large enough effect; inconclusive = small, poorly fitted or top-dose-only effect, or another doubt; inactive = no such curve, though single readings can be large or run the other way;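 note: the enzyme is Sfp with the accession as filed and its product quenches rhodamine fluorescence; potency is the fitted concentration of half-maximal effect; 0% = enzyme reaction without inhibitor and -100% = no enzyme wells; top concentration of the series not given in the record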
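Buffer: 50 mM Hepes-Na pH 7.6, 10 mM MgCl2, 0.01% Nonidet P-40, 0.01% BSA. Enzyme 15 nM, pre-exposed to compound 15 min; substrates then added and fluorescence change tracked over 30 min.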
TRPV1 PAM: HTS Assay for Compounds that Act as Potentiators of the Vanilloid Receptor 1; potentiation, % at 8.33 µM; AID 540277, 2011; TRPV1-expressing cells, Fluo-8 calcium influx, capsaicin EC20 potentiation; host cell line not named in the record; control for the full effect not named in the record; hit rate 0.02% among 320,000; active means potentiation above 80%; inconclusive means 30% to 80%; inactive means below 30%; note: 0% is about no effect
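Fluo-8 calcium influx in TRPV1-expressing cells, kinetic read (ex 480/em 520 nm). Compound added and read 3 min for agonist activity, followed by capsaicin at EC20 final and 2 min further read for enhancement.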
D2 PAM: Beta-Arrestin HTS for Positive Allosteric Modulators of the Human D2 Dopamine Receptor: Potentiators | D(2) dopamine receptor (Homo sapiens), P14416 | potentiation, % (no concentration beside the values) | AID 624464, 2012 | hit rate 0.23% among 360,000 | DiscoveRx D2 beta-arrestin cells, luminescence, 90 min; 100% = 57 uM dopamine signal; active = potentiation of 50% or more; inconclusive = 30% to 50%; inactive = 30% or less;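 note: compound concentration not given in the record; tested on top of an EC20 dose of dopamine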
Target sequence (P14416 whole entry, looked up): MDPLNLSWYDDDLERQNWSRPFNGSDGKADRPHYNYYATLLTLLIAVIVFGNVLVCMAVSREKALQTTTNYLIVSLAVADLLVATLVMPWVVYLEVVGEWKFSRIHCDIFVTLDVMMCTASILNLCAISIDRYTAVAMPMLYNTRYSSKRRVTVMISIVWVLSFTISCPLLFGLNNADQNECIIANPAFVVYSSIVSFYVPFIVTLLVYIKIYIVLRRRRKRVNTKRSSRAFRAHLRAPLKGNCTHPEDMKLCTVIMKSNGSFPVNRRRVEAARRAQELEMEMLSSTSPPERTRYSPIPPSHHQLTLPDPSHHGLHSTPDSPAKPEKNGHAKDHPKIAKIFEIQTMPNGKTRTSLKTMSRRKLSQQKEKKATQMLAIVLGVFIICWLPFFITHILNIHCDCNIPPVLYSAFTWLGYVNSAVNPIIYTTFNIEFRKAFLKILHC
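PathHunter D2 cells, attached overnight at 37 deg C, received compound in DMSO plus dopamine at EC20 (50 nM final) for 90 min at 37 deg C. Beta-arrestin recruitment was read as luminescence after 1 h with detection reagent at ambient temperature.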
Numbers without * were called inactive; u = inconclusive; x = no result given; [ ] = dose if it differs, or a comment. Random draw from the library; about 5.1% have a hit in one of these screens.

no. | canonical_smiles | gsp agonist | gsp antagonist | Menin MLL FP FL | ClpP mod | Sfp inh | TRPV1 PAM | D2 PAM
1 | CN(CC(O)COc1c(F)cc(Br)cc1F)C1CCCCC1 (stereo not given) | 3%[15.4 µM] | 3% | -4.1 | x | 0% | 9 | -16
2 | O=C(CCc1ccccc1)Nc1cc2c(cc1Cl)OCCO2 | -20% | 16% | 0.4 | -2.9% | 21% | 3 | -14
3 | COc1ccc(NC2=NCCC(=O)N2Cc2cccs2)cc1 | -7% | 2% | -0.7 | -2.7% | u | -8 | -14
4 | Cc1ccc(S(=O)(=O)NCCC(=O)NNc2c(F)c(F)cc(F)c2F)cc1 | 29% | 3% | x | -1.8% | x | x | -4
5 | CCOC(=O)C1=C(COC(=O)/C=C/c2ccc(OCC)c(OC)c2)NC(=O)NC1C (stereo not given) | 12%[15.4 µM] | 10% | x | -0.5% | x | -6 | -6
6 | CC(=C/c1ccccc1)/C=N/NC(=O)c1nnn(-c2nonc2N)c1CN1CCC(C)CC1 | 17% | u | 1.2 | x | 9% | -4 | -3
7 | O=C(OCC(=O)c1ccc(Cl)s1)c1ccc2ccccc2n1 | 18% | 9% | 9.1 | -8.0% | -9% | 3 | -18
8 | O=C(CS(=O)(=O)c1c[nH]c2ccccc12)N1CCCCCC1 | -4%[15.4 µM] | 15% | -4.5 | x | 10% | -19 | 5
9 | COc1ccc(CNc2cc([N+](=O)[O-])ccc2OC)cc1 | -1% | -6% | 4.3 | 0.7% | -19% | 6 | -31
10 | O=C(NCCc1ccccc1)c1ccc2[nH]c(=O)c(=O)[nH]c2c1 | -8% | 2% | 4.5 | 4.1% | 17% | -4 | -9
11 | CC(=O)Nc1ccc(S(=O)(=O)N(C)c2ccc(O)cc2)cc1 | -12% | 7% | 9.4 | 0.3% | -13% | -4 | -5
12 | O=C(OCCc1cc2ccccc2c(=O)o1)c1ccccc1C(F)(F)F | -33%[inhibitor] | -20% | x | 0.4% | x | -34 | -6
13 | CCOC(=O)C(CC)/C(C)=N/NC(=O)c1ccc([N+](=O)[O-])cc1 (stereo not given) | 2% | 2% | 5.0 | -0.7% | -4% | -22 | -15
14 | C/C(=N\NC(=O)c1nn(C)cc1Br)c1cccc(NC(=O)C(C)(C)C)c1 | -26% | -1% | 1.5 | -3.7% | 15% | -6 | -2
15 | Cn1nc(-c2ccc(N3CCOCC3)c(NS(=O)(=O)c3ccccc3)c2)c2ccccc2c1=O | -49%[inhibitor] | 5% | 0.5 | -0.9% | 14% | 1 | -5
16 | CC1CC(C)CN(C(=O)c2cc(-c3ccncc3)nc3ccccc23)C1 (stereo not given) | -49%[inhibitor] | -4% | x | -16% | x | 1 | 0
17 | COC(=O)CSc1nc2cc(Cl)ccc2c(=O)n1C1CCCC1 | -9% | -25% | -0.3 | 2.0% | -13% | -18 | 3
18 | Cc1cc(C)nc(SCC(CSc2nc(C)cc(C)n2)C(=O)O)n1 | -33%[15.4 µM] | -1% | 1.5 | x | -6% | -9 | 0
19 | CCC(=O)C1CCCN(C(=O)c2ccc(OC3CCN(C(=O)CCOC)CC3)cc2)C1 (stereo not given) | 2%[15.4 µM] | 3% | x | 0.8% | 14% | 2 | -10
20 | Cc1ccccc1C(=O)NNC(=O)Cc1cccc2ccccc12 | 3% | -1% | 0.9 | -1.6% | 18% | 6 | -6

The closing 2 records of the part before are carried over, then new ones follow:
no. | canonical_smiles | gsp agonist | gsp antagonist | Menin MLL FP FL | ClpP mod | Sfp inh | TRPV1 PAM | D2 PAM
19 | CCC(=O)C1CCCN(C(=O)c2ccc(OC3CCN(C(=O)CCOC)CC3)cc2)C1 (stereo not given) | 2%[15.4 µM] | 3% | x | 0.8% | 14% | 2 | -10
20 | Cc1ccccc1C(=O)NNC(=O)Cc1cccc2ccccc12 | 3% | -1% | 0.9 | -1.6% | 18% | 6 | -6
21 | O=C1CCCCN1CC(=O)N1CCCC(Nc2ccc(F)cc2)C1 (stereo not given) | -90%[inhibitor] | 0% | x | -3.0% | 6% | -7 | -6
22 | CCOc1ccc(CN(C(=O)c2oc3ccccc3c2C)C2CCS(=O)(=O)C2)cc1 (stereo not given) | 3% | u | 1.6 | -1.1% | -6% | 6 | -8
23 | Cc1ccc(C)c(N2CCN(c3ccc4cc(S(=O)(=O)N5CCCCC5)ccc4n3)CC2)c1 | u | 11% | 0.4 | u | -17% | 9 | -15
24 | O=C(c1ccc(Br)cc1)N(Cc1ccco1)C1CCS(=O)(=O)C1 (stereo not given) | u | 4% | x | 2.8% | 4% | 22 | -9
25 | CC1Cc2ccccc2N1C(=S)NC(=O)c1cccc(Br)c1 (stereo not given) | 1%[15.4 µM] | -8% | -0.1 | 1.2% | -11% | 12 | -29
26 | COc1ccc(CNC(=O)CSc2nnc(-c3ccc(NC(C)=O)cc3)n2C)cc1 | 7% | 6% | 3.6 | -1.7% | -6% | u | 1
27 | COc1cc2c(cc1OC)/C(=C/c1ccc(Cl)cc1)C(=O)OC2 | u | -3% | 5.2 | -22% | -11% | 8 | -17
28 | COc1ccc(-c2noc(C(C)NS(=O)(=O)c3ccc(NC(C)=O)cc3)n2)cc1 (stereo not given) | -15%[15.4 µM] | 0% | -1.1 | x | 18% | 1 | -4
29 | COc1cccc(S(=O)(=O)N(C)C[C@H]2OCc3cnnn3CCCC(=O)N([C@@H](C)CO)C[C@@H]2C)c1 | 18% | x | x | -2.2% | x | x | 2
30 | O=C(COC(=O)/C=C/c1ccc([N+](=O)[O-])cc1)NCc1ccc2c(c1)OCO2 | 4% | -6% | 4.1 | 1.0% | -11% | x | 1
31 | CCC(CC)C(=O)Nc1ccc(Sc2ccc([N+](=O)[O-])cc2)cc1 | 18% | u | 0.7 | -2.2% | 6% | -1 | -7
32 | CN(C)S(=O)(=O)N(CC(=O)NCCSCc1ccc(Cl)cc1)c1ccccc1 | 0% | -9% | -1.6 | x | 6% | -3 | -3
33 | COc1ccc(C2NC(Cc3ccccc3)(C(=O)O)C3C(=O)N(c4ccccc4OC)C(=O)C23)cc1 (stereo not given) | 1% | 6% | 3.6 | x | -17% | 1 | 5
34 | CN1CCN(C(=O)CCCN2C(=O)/C(=C/c3ccccc3)SC2=S)CC1 | -5%[15.4 µM] | -3% | -3.7 | x | 6% | 22 | -4
35 | CCOc1ccc(Nc2nc3cc(S(=O)(=O)CC)ccc3o2)cc1 | -10%[15.4 µM] | 0% | -1.9 | x | -21% | 13 | 2
36 | CC(=O)N1CCc2cc(S(=O)(=O)CCC(=O)N3CCN(C(=O)c4ccco4)CC3)ccc21 | u | 2% | -1.1 | -0.6% | u | 2 | 3
37 | O=C(CN1C(=O)/C(=C/c2ccccc2)Sc2ccccc21)NCCCN1CCOCC1 | u | -7% | -2.1 | -0.3% | 0% | 0 | -13
38 | COc1ccc(-c2csc(NC(=O)C3CCCO3)n2)cc1 (stereo not given) | 5% | -15% | 2.9 | 0.2% | -17% | 2 | -5
39 | COc1ccc2[nH]c(=O)c(CN(Cc3ccc(C)cc3)Cc3nnnn3CC3CCCO3)cc2c1 (stereo not given) | 5% | 2% | 2.7 | u | 16µM* | -5 | -40
40 | CC1(C)Cc2c(sc(/N=C/N3CCCCC3)c2C#N)C(C)(C)N1 | -12% | 1% | 2.8 | 2.1% | 5% | 7 | -5
41 | Cc1ccc(CNC(=O)c2cccc(S(C)(=O)=O)c2)cc1 | -42%[inhibitor] | 16% | -0.9 | 0.3% | 8% | 9 | -13
42 | CCCCCCN1C[C@H](n2cc(COC(=O)c3ccccc3)nn2)[C@@H](O)C[C@@H]1c1ccc(OC)cc1 | -3% | x | x | -4.7% | x | x | 2
43 | Cc1ccc(C(C)NC(=O)c2cc(C)oc2C)cc1 (stereo not given) | -21% | 2% | 4.2 | 0.6% | -3% | 4 | -6
44 | c1coc(C2Nc3ccccc3C3OCCC23)c1 (stereo not given) | -33%[inhibitor] | 6% | 4.9 | u | -5% | 1 | 0
45 | COc1ccc(/C=C/C(=O)OCc2csc(-c3ccccc3)n2)cc1OC | 1%[15.4 µM] | -14% | 4.5 | x | -6% | 2 | 7
46 | CN1C(=S)SC(N2OC3C(=O)N(c4ccccc4)C(=O)C3C2c2ccc(Cl)cc2)C1(C)C (stereo not given) | -2% | 1% | 4.1 | 28µM* | 16% | 0 | -2
47 | O=C(OCc1ccc(COC(=O)c2ccccn2)cc1)c1ccccn1 | -50%[inhibitor] | 7% | 0.3 | 0.9% | 8% | 6 | -4
48 | COC(=O)C1C(c2ccccc2)C(C(=O)N2CCN(C)CC2)C1c1ccccc1 (stereo not given) | -5% | -4% | 5.5 | -1.6% | 7% | -17 | 8
49 | CCCCn1c(O)c(N=Nc2ccccn2)c2ccccc21 | 0% | 0% | 3.6 | -2.8% | u | -15 | u
50 | CCn1c(SCC(=O)Nc2cc(C)nn2-c2ccccc2)nnc1-c1cccs1 | -10%[15.4 µM] | 5% | 2.2 | 0.1% | -1% | -1 | 9
51 | O=C(O)c1ccc(C[n+]2c(-c3ccccc3)csc2Nc2ccccc2)cc1 | -16% | -21% | 7.7 | -1.8% | 5% | -2 | -5
52 | CCN1CCN(CCNC(=O)c2ccc(CS(=O)(=O)c3c(Cl)cccc3Cl)o2)CC1 | -25% | 14% | -2.6 | 2.1% | 18% | x | -6
53 | O=C(N/N=C/c1ccccc1F)c1cccc2ccccc12 | 17% | 9% | 0.2 | -1.3% | 15% | -2 | -2
54 | Cn1cc(C(=O)c2ccccc2C(=O)O)cc1C(=O)C(Cl)(Cl)Cl | u | 5% | -1.4 | x | 9% | u | -5
55 | O=C(Cc1csc(NC(=O)Nc2ccc(Cl)cc2)n1)NCc1cccnc1 | -3% | -20% | x | -2.5% | x | 2 | -1
56 | COc1ccccc1Nc1nnc(SC(C)C(=O)NC2CC2)s1 (stereo not given) | 3% | -3% | x | 0.6% | x | 4 | -2

Bioassay records (PubChem)
